# RE007 growth inh: less growth of the S. pombe RE007 Vpr strain. S. pombe RE007 Vpr strain, BacTiter-Glo ATP luminescence, 24 h; control for the full effect not named in the record. Potency, µM (doses to about 92.2 µM), inactives show at the highest dose activity change, negative = less growth. actives 0.21% (n = 360,000). AID 651644; active = well fitted falling curve with a large enough effect; inconclusive = small, poorly fitted or top-dose-only effect; inactive = no such curve, though single readings can be large or run the other way;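 also: % is scaled to controls: 0 for no effect and ±100 for the full control effect; nearly all actives have a fitted effect of over 50% in size; the assay follows cell death caused by Vpr and the record does not say whether a fall means rescue or toxicity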
#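 Fission yeast RE007 carrying one integrated HIV-1 vpr copy, seeded at OD 0.01 in PMG+AL medium with 23 nL pinned compound. Grown 24 h at 30 degrees; viability read by BacTiter-Glo luminescence after 5 min.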
# NS1 function inh: inhibitors of influenza NS1 protein function. S. cerevisiae slowed by influenza A NS1, growth recovery by OD600. Potency, µM (top dose mostly 46.1 µM), inactives show at the top dose activity, positive = more growth. actives 0.4% (n = 270,000); active means well fitted rising curve with a large enough effect; inconclusive means small, poorly fitted or top-dose-only effect; inactive means no such curve, though single readings can be large or run the other way; also: nearly all actives have a fitted effect of over 50% in size
#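 Recovery from NS1-induced slow growth read by OD600 in budding yeast switched to galactose assay medium (pH 6.0, -URA) at 1:100 dilution. Compound 23 nl per well; the matching strain lacking NS1 serves as control.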
# Marburg entry inh: inhibitors of Marburg virus binding or cell entry. Marburg virus pseudotyped entry inhibition, cell reporter; control for the full effect not named in the record; about a third of the inactives were read at about 46 µM. Potency, µM (series often up to 37.8 µM), without a hit: at the top dose activity change, negative = inhibition, usual class: inhibitors. actives 1.8% (n = 300,000); active = well fitted inhibition curve with a large enough effect; inconclusive = small, poorly fitted or top-dose-only effect, or effect the other way; inactive = flat fitted curve, though single readings scatter; tested in HEK293 cells; about a fifth of its hits are not listed in these tables; also: % is scaled to controls: 0 for no effect and ±100 for the full control effect; luciferase read-out
# SARS PLP yeast: blocks SARS-CoV papain-like protease in a yeast assay; AID 485353; actives 0.19% (n = 330,000); S. cerevisiae expressing SARS-CoV PLpro, growth rescue; control for the full effect not named in the record; Potency, µM (top dose mostly 32.9 µM), without a hit: at the highest dose activity, positive = growth rescue; active means well fitted rising curve with a large enough effect; inconclusive means small, poorly fitted or top-dose-only effect; inactive means no such curve, though single readings can be large or run the other way; also: 0% is about no effect; nearly all actives have a fitted effect of over 55% in size; growth read by luminescence after 48 h
# StopGo reporter: FMDV 2A StopGo reporter, luciferase signal; AID 1159524; Potency, µM (doses to about 57.9 µM), inactives show top-dose signal change, negative = less light; human cells with a luciferase reporter of 2A StopGo recoding; control for the full effect not named in the record; actives 1.2% (n = 410,000); active = well fitted falling curve with a large enough effect; inconclusive = small, poorly fitted or top-dose-only effect; inactive = no such curve, though single readings can be large or run the other way; tested in HEK293T cells; also: % is scaled to controls: 0 for no effect and ±100 for the full control effect; nearly all actives have a fitted effect of over 45% in size; luciferase light after 4 h
# Cruzain inh Det: inhibitors of Trypanosoma cruzi cruzain with detergent; Potency, µM, for inactives: max response, negative = inhibition, most hits filed as inhibitors; actives 0.43% (n = 200,000); AID 1478; purified cruzain, Z-FR-AMC fluorescence, 0.01% Triton;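 also: plate controls were neutral wells for no effect and buffer without enzyme for full effect; nearly all actives have a fitted effect of over 40% in size; top concentration of the series not given in the record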
# Target sequence (P25779 123-467 limits assumed): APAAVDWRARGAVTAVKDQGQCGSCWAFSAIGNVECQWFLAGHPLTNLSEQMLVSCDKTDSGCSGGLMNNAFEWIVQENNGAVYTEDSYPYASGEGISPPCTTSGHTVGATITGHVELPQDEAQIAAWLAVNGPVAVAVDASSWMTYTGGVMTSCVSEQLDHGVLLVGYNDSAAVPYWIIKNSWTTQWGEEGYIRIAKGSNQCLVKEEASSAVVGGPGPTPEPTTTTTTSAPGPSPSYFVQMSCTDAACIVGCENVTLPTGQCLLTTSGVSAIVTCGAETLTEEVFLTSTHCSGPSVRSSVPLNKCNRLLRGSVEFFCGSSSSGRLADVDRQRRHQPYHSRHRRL
#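 Sodium acetate buffer (100 mM, pH 5.5) containing 5 mM DTT and 0.01% Triton X-100 hosted 1.5 nM cruzain and test compound for 15 min at room temperature. Cleavage of 2 uM Z-FR-AMC was then tracked by fluorescence.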
# Lassa entry inh: inhibitors of Lassa virus binding or cell entry. Lassa virus pseudotype entry inhibition, cell reporter; control for the full effect not named in the record. Potency, µM (doses to about 37.9 µM), for inactives: top-dose activity change, negative = inhibition, actives largely listed as inhibitors. actives 1.2% (n = 300,000); active means well fitted inhibition curve with a large enough effect; inconclusive means small, poorly fitted or top-dose-only effect, or effect the other way; inactive means flat fitted curve, though single readings scatter; tested in HEK293 cells; also: % is scaled to controls: 0 for no effect and ±100 for the full control effect; nearly all actives have a fitted effect of over 50% in size; luciferase read-out
# Cruzain inh noDet: blocks cruzain activity in detergent-free assay; actives 2.3% (n = 200,000); purified cruzain, Z-FR-AMC fluorescence, no detergent; Potency, µM, without a hit: max response, negative = inhibition, hits mostly inhibitors; P25779;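 also: plate controls were enzyme without inhibitor for no effect and buffer without enzyme for full effect; nearly all actives have a fitted effect of over 40% in size; top concentration of the series not given in the record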
#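 Detergent-free condition (0.00005% Triton X-100) in acetate buffer pH 5.5 with DTT. 1.5 nM enzyme and compound were pre-mixed 15 min, then 2 uM Z-FR-AMC substrate added; reaction progress from fluorescence change between first and third reads (60 s).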
# An asterisk follows results filed as active; ? = inconclusive; / = no result given; [ ] = another dose, or the depositor's remark. Unless noted, calls follow the shape of the dose curve; as a rule, active = well fitted curve in the direction sought with a large enough effect; inconclusive = small, poorly fitted or top-dose-only effect, or another doubt; inactive = no such curve, though single readings can be large; an effect the other way counts as inactive or inconclusive. Potency is read from the fitted curve at half-maximal effect.
Compound | RE007 growth inh | NS1 function inh | Marburg entry inh | SARS PLP yeast | StopGo reporter | Cruzain inh Det | Lassa entry inh | Cruzain inh noDet
Cc1ccc(C(=O)NC2c3ccccc3-c3ccccc32)cc1 | -11% | 8% | ? | -4% | -17% | -1.6% | ? | ?
O=C(O)CC(CCc1ccccc1)OC1OC(CO)C(O)C(O)C1O (stereo not drawn) | 23% | -1% | / | 9% | -4% | / | / | /
COc1ccc(CNC(=O)c2cc3sccc3n2C)cc1 | / | / | ? | / | 14% | -6.1% | / | 0%
CCOC(=O)Nc1ccc(S(=O)(=O)NCc2ccccc2)cc1 | 8% | -19% | -17% | 8% | / | -0.8% | ? | -6%
Cc1ccc2c(c1)CCCN2C(=O)c1ccco1 | 19% | -61% | 1% | -14% | 12% | -1.1% | -14% | 12%
CCOc1ccc(N(CC(=O)Nc2ccc(CC)cc2)S(=O)(=O)c2c(C)[nH]c(=O)[nH]c2=O)cc1 | 6% | 14% | / | 1% | 6% | / | / | /
Cc1c(NS(=O)(=O)c2cccc3nsnc23)c(=O)n(-c2ccccc2)n1C | -10% | -2% | ? | 7% | -8% | -1.9% | 3% | -3%
CCOc1ccc(C2C(C(=O)Nc3ccc(F)cc3)=C(C)Nc3nc(CCCO)nn32)cc1 (stereo not drawn) | -2% | -3% | / | -2% | -1% | 2.8% | / | ?
CSc1ncc(Cl)c(C(=O)Nc2ccccc2[N+](=O)[O-])n1 | 0% | 6% | 13% | 2% | -3% | / | 14% | /
CCOC(=O)c1oc2c(c1C)/C(=N/O)CCC2 | -4% | -25% | 25% | -13% | 32%[activator] | -0.3% | ? | -5%
COc1cccc(C=NNC(=O)c2ccncc2)c1O | -8% | / | ? | / | 21% | / | ? | /
CC(C)=C1C2CCC1C(C(=O)NCCc1ccccc1)C2C(=O)O (stereo not drawn) | -14% | -9% | 10% | 5% | -27% | -3.0% | 3% | -3%
O=C(NCC1CCCO1)c1ccccc1NS(=O)(=O)c1cc([N+](=O)[O-])ccc1Cl (stereo not drawn) | 14% | / | ? | -3% | 13% | / | -17%[46.1 µM] | /
COc1cccc(-c2nn(C)c3sc(C(=O)N4CCN(c5cccc(C)c5)C(C)C4)cc23)c1 (stereo not drawn) | / | / | 1%[46.1 µM] | / | -11% | -6.5% | ? | 8%
COC(=O)c1ccc(OC(=O)c2cnccn2)cc1 | 0% | 9% | ? | 0% | 3% | / | -6%[46.1 µM] | /
Cc1csc(NC(=O)CSc2nnc3c4ccccc4nc(C(C)(C)C)n23)n1 | 5% | ? | ? | 0% | / | 3.6% | ? | ?
CC(C)c1ccc(N(CC(=O)NCCSCc2ccco2)S(C)(=O)=O)cc1 | -8% | 1% | ? | 0% | -6% | / | -16% | /
COc1ccc(OCc2nnc(SCC(=O)NCC3CCCO3)n2N)cc1 (stereo not drawn) | -5% | / | 9% | 14% | 1% | / | ? | /
CCOC(=O)c1c(NC(=O)CCN2C(=O)c3ccccc3C2=O)sc(C(=O)OC(C)C)c1C | -2% | 19% | 4% | -11% | 3% | -2.4% | -9% | -8%
OCC1CCCCN1CCNCc1cn[nH]c1-c1cccc2ccccc12 (stereo not drawn) | 3% | -2% | / | 1% | -16% | / | / | /

# Next section.
Compound | RE007 growth inh | NS1 function inh | Marburg entry inh | SARS PLP yeast | StopGo reporter | Cruzain inh Det | Lassa entry inh | Cruzain inh noDet
O=c1[nH][nH]c(=O)c2c(NS(=O)(=O)c3ccccc3)cccc12 | 16% | -5% | 25%[46.1 µM] | 1% | 21% | / | ? | /
CCc1ccccc1NC(=O)CCS(=O)(=O)c1ccc(C)cc1 | 7% | 0% | / | -1% | -6% | / | / | /
O=C(C1CCN(S(=O)(=O)c2cccs2)CC1)N1CCN(c2cccc(Cl)c2)CC1 | / | / | 5%[46.1 µM] | / | ? | -5.9% | -1%[46.1 µM] | 26%
CC1CC(C)CN(CCCn2c(=S)[nH]c3ccccc3c2=O)C1 (stereo not drawn) | -14% | 4% | ? | 2% | -13% | 3.1% | 20% | -17%
COc1cc(-c2nnc(NC(=O)CS(=O)(=O)c3ccc(F)cc3)o2)cc(OC)c1OC | 12% | / | 17% | 2% | -14% | / | -1% | /
COc1ccc(CCNC(=O)COC(=O)CCC(=O)c2ccc(F)cc2)cc1OC | -16% | -5% | -5%[46.1 µM] | 1% | 1% | / | -6% | /
Cc1cc(C)c(S(=O)(=O)O)c(C)n1 | ? | 5% | 21% | 1% | 9% | 6.3% | 15% | 2%
O=C(CCc1nnc(CCCCc2ccccc2)o1)NCc1cc(F)ccc1F | -1% | -3% | ? | -2% | -13% | / | -1% | /
CC1Cc2ccccc2N1Cc1nc2cc(Cl)ccc2c(=O)[nH]1 (stereo not drawn) | 9% | 11% | -23% | -12% | -25% | 4.5% | -5% | 25µM*
Cc1ccc(C)c(-n2c(N)c(C#N)c3nc4ccccc4nc32)c1 | / | / | / | / | -5% | 5.0% | 3%[46.1 µM] | 5%
CC(=O)Nc1cc([N+](=O)[O-])ccc1N1CCOCC1 | -5% | / | 11%[46.1 µM] | -2% | -2% | / | -5% | /
COc1ccc(OC)c(NC(=O)CCn2c(=S)[nH]c3ccccc3c2=O)c1 | 15% | -10% | 3%[46.1 µM] | -4% | 2% | / | -5%[46.1 µM] | /
COc1cc(C(=S)N2CCCC2)cc(OC)c1O | -4% | 4µM* | 2% | 15% | -16% | -1.3% | 6% | 6%
CCc1nnc(NC(=O)c2ccncc2)s1 | 24% | -3% | 13% | -2% | 26% | -0.7% | 27% | -6%
Cc1ccccc1OCc1ccc(C(=O)N2CCOCC2)o1 | 2% | -7% | 12%[46.1 µM] | -2% | 37% | / | 6%[46.1 µM] | /
CN(C)c1ccc(Nc2ncnc3ccc(Br)cc23)cc1 | -22% | -73% | / | -9% | 5% | / | / | /
COc1ccc(Sc2nc3ccccc3n3c(C(F)(F)F)nnc23)cc1 | -9% | 5% | 28% | 2% | -21% | 4.1% | -1% | 3%
CCOC(=O)c1cc2cc(C)ccc2[nH]1 | ? | -13% | -17%[46.1 µM] | 0% | 24% | 0.7% | 22% | 0%
CC(CN(C)Cc1ccccc1)OC(=O)c1ccc2c(c1)OCCO2 (stereo not drawn) | 8% | 0% | ? | 0% | 12% | 1.0% | 0% | 3%
O=C(Nc1nc(-c2ccncc2)cs1)c1ccc(S(=O)(=O)N2CCOCC2)cc1 | -4% | -7% | -6% | 1% | ? | 1.5% | ? | 5%

# Among those listed so far, five have two or more sulfur atoms:
Compound | RE007 growth inh | NS1 function inh | Marburg entry inh | SARS PLP yeast | StopGo reporter | Cruzain inh Det | Lassa entry inh | Cruzain inh noDet
Cc1c(NS(=O)(=O)c2cccc3nsnc23)c(=O)n(-c2ccccc2)n1C | -10% | -2% | ? | 7% | -8% | -1.9% | 3% | -3%
Cc1csc(NC(=O)CSc2nnc3c4ccccc4nc(C(C)(C)C)n23)n1 | 5% | ? | ? | 0% | / | 3.6% | ? | ?
CC(C)c1ccc(N(CC(=O)NCCSCc2ccco2)S(C)(=O)=O)cc1 | -8% | 1% | ? | 0% | -6% | / | -16% | /
O=C(C1CCN(S(=O)(=O)c2cccs2)CC1)N1CCN(c2cccc(Cl)c2)CC1 | / | / | 5%[46.1 µM] | / | ? | -5.9% | -1%[46.1 µM] | 26%
O=C(Nc1nc(-c2ccncc2)cs1)c1ccc(S(=O)(=O)N2CCOCC2)cc1 | -4% | -7% | -6% | 1% | ? | 1.5% | ? | 5%

# The list goes on:
Compound | RE007 growth inh | NS1 function inh | Marburg entry inh | SARS PLP yeast | StopGo reporter | Cruzain inh Det | Lassa entry inh | Cruzain inh noDet
CN(C)c1cc(O)c(C(=S)Nc2ccccc2)c(N(C)C)c1 | -11% | 0% | ? | -12% | 4% | -2.6% | 10% | -14%
Cc1cc(C)c2c(n1)SCC(=O)N2CC(=O)Nc1cc(F)ccc1F | -10% | 5% | / | 8% | 0% | / | / | /
O=[N+]([O-])c1cccc(N/N=C/c2cc([N+](=O)[O-])ccc2O)c1 | 69% | / | ? | -16% | -27% | / | ? | /
CN(C1CCS(=O)(=O)C1)S(=O)(=O)c1ccc(N2CCCC2=O)cc1 (stereo not drawn) | 4% | 3% | ? | 3% | / | 2.7% | 3% | -5%
Cc1ccc2nc(Cl)c(/C=N/NC(=O)CN3CCOCC3)cc2c1 | 1% | / | -2%[46.1 µM] | / | 15% | / | -3% | /
CC(OC(=O)c1ccc(NC(=O)CC#N)cc1)C(=O)Nc1ccc2c(c1)OCCO2 (stereo not drawn) | -5% | / | 1% | / | -1% | / | ? | /
COCCn1c(=NC(=O)CSC(C)=O)sc2cc(OC)ccc21 | -6% | -33% | / | -8% | 0% | -4.5% | / | -11%
O=C(CN1C2=NCCN2c2ccccc21)N1CCOCC1 | 1% | ? | -1% | / | -18% | 3.1% | -7% | 4%
O=C(NC1CCCCCCC1)c1ccco1 | ? | -37% | ? | -12% | 34%[activator] | 1.6% | 20% | 8%
Cc1csc(NC(=O)CCc2c(C)nc3cc(-c4cccc(F)c4)nn3c2C)n1 | -7% | ? | -22% | -3% | -9% | -12% | -4% | 27%
CCN(C(=S)NC(=O)Cc1ccc(OC)cc1)c1ccccc1 | 2% | / | -6%[46.1 µM] | / | 8% | / | 28%[46.1 µM] | /
Cc1ccc(/C=N/n2c(-c3ccccc3)n[nH]c2=S)cc1 | 0% | -5% | / | 0% | -14% | / | / | /
CC(Oc1ccc(F)cc1F)C(=O)NNC(=S)NCC1CCCO1 (stereo not drawn) | 20% | 0% | / | 2% | 38% | / | / | /
CCn1cnc2c1c(=O)n(CC(=O)OC(C)C(N)=O)c(=O)n2Cc1ccccc1 (stereo not drawn) | 3% | -2% | 25% | -5% | -13% | / | 5% | /
COc1ccc(OC)c(NC(=O)Cn2ccn(-c3ccc(OC)c(OC)c3)c(=O)c2=O)c1 | / | / | / | / | -6% | -4.3% | -2%[46.1 µM] | 3%
CC1CCN(Cc2c(C(=O)N/N=C/c3ccc(C(C)(C)C)cc3)nnn2-c2nonc2N)CC1 | -2% | 10% | / | 3% | -15% | / | / | /
O=C(CCl)N(c1ccccc1)c1ccccc1 | 25% | 2% | ? | 0% | 14µM* | / | ? | /
